# Assay outcomes: PubChem, National Center for Advancing Translational Sciences (NCATS)
# HPGD inh: inhibitors of human 15-hydroxyprostaglandin dehydrogenase (HPGD); actives 4.3% (n = 150,000); purified HPGD, NADH fluorescence kinetic, PGE2 substrate; Potency, µM, without a hit: top-dose activity change, negative = inhibition, most hits filed as inhibitors; P15428; AID 894; active = well fitted inhibition curve with a large enough effect (not every such curve was filed as active); inconclusive = small, poorly fitted or top-dose-only effect, or another doubt; inactive = no such curve, though single readings can be large or run the other way;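 also: top concentration of the series not given in the record; plate controls included wells without enzyme; inactives centre near -10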
# Target sequence (P15428 whole entry, looked up): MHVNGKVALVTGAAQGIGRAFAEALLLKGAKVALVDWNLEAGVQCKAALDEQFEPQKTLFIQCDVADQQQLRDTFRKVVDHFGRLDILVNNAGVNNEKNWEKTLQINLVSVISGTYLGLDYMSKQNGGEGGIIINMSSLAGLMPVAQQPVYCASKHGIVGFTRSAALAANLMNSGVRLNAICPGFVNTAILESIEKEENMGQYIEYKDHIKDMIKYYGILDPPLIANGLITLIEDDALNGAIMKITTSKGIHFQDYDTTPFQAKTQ
#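 NADH formation kinetics: reaction with 30 uM PGE2 and 1 mM NAD+ (final), 20 nM enzyme, Tris-HCl pH 8 with Tween 20, after 15 min compound preincubation at room temperature. Fluorescence change, last versus first of five reads.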
# * hit, by the source's call; ? = inconclusive; & = joins results of further samples. % is scaled to controls: 0 for no effect and ±100 for the full control effect; potency is read from the fitted curve at half-maximal effect. Not all compounds are listed; rates above refer to the full screens.
# A first look:
HPGD inh	structure
-10%	CCC(C)c1ccc(OCC(=O)Nc2ccc(Cl)cn2)cc1 (stereo not drawn)
-7%	Cc1ccc2cc(C)c(SCC#N)nc2c1
0%	CCOc1ccccc1NC(=O)C1=C(C)NC(=O)NC1c1cccc(OC)c1OC (stereo not drawn)

# The listing, repeating the preview:
HPGD inh	structure
-10%	CCC(C)c1ccc(OCC(=O)Nc2ccc(Cl)cn2)cc1 (stereo not drawn)
-7%	Cc1ccc2cc(C)c(SCC#N)nc2c1
0%	CCOc1ccccc1NC(=O)C1=C(C)NC(=O)NC1c1cccc(OC)c1OC (stereo not drawn)
-6%	CC1CCC2(CC1)NC(=O)N(CC(=O)c1ccc[nH]1)C2=O (stereo not drawn)
-26%	CCOC(=O)c1cc2c(ccn2C)n1Cc1cc(C)ccc1C
-6%	Cc1ccc(NC(=S)Nc2ccc(Br)cc2)cc1
-8%	CC1=CC(C)(C)N2C(=O)C3(C(C#N)=C(N)OC4=C3C(=O)CC(C)(C)C4)c3cc(C)cc1c32 (stereo not drawn)
1%	CC(C)COC(=O)N1CCCC1C(=O)Nc1nccs1 (stereo not drawn)
-14%	O=C(NCc1ccccc1)c1ccc(C(=O)N(C2CCCCC2)C2CCCCC2)cc1
-19%	COC(=O)CNC(c1ccccc1)c1cc(Br)ccc1NC(=O)OCc1ccccc1 (stereo not drawn)
-4%	FC(F)(F)C(F)(F)C(F)(F)c1nnc2ccc(N3CCOCC3)nn12
-9%	Nc1cc(C(=O)O)ccc1N1CCCCCC1
-5%	O=C(CSc1nnc(-c2ccccc2)n1-c1ccccc1)NCc1ccco1
18µM*	Cc1c(NC(=O)/C(C#N)=C/c2ccc(-c3cccc(Cl)c3)o2)c(=O)n(-c2ccccc2)n1C
-7%	CSc1ccc([C@H]2CN3CCC[C@H]3c3ccccc32)cc1
-4%	N=c1ncn(CC(O)CO)c2nc(N3CCOCC3)[nH]c12 (stereo not drawn)
-8%	O=C(c1n[nH]c(=O)c2ccccc12)N1CCN(c2ccc(F)cc2)CC1
-7%	CCOC(=O)C1CCN(C(=O)COC(=O)CCOc2ccc(C)cc2)CC1
-19%	COc1ccc(C2=Nn3c(nnc3C3CCCCC3)SC2)cc1OC
-8%	OCCn1c(-c2ccc3c(c2)OCO3)csc1=Nc1ccccc1
-5%	Brc1ccc2nc(CSc3ncn[nH]3)cn2c1
-20%	COc1ccccc1OCC(=O)NCCSCc1ccccc1Cl
-6%	CC(C)(O)C1CC[C@@]2(C)C3CCC4[C@@]5(C)CCCC(C)(C)C5C(O)C[C@]4(C)[C@]3(C)CC[C@@H]12 (stereo partly drawn)
-25%	COc1ccc(S(=O)(=O)Nc2ccc3ccccc3c2)cc1C
-11%	Cc1c(NC(=O)/C=C/c2cccs2)c(=O)n(-c2ccccc2)n1C
-10%	N#CC(C(=O)O)=C1CCCC1
?	N#Cc1ccc2ccn(CC(=O)NC3CCCCC3)c2c1
-9%	Cc1nc2ccccn2c1C(=O)CSc1ccc(Cl)cc1Cl
-8%	COc1cc(/C=N/NC(=O)c2cnccn2)ccc1O
?	Cc1ccnc(N2CCC(C(=O)Nc3ccc4c(c3)OCO4)CC2)n1
-4%	c1ccc(CCn2nnnc2C(c2cccs2)N2CCN(Cc3ccc4c(c3)OCO4)CC2)cc1 (stereo not drawn)
-6%	COc1ccccc1-c1nnc(SCC(=O)N2CCOCC2)n1-c1ccccc1
-17%	CCOc1ccc(/C=C/C(=O)c2ccc(-c3ccccc3)cc2)cc1
-6%	COc1ccc(C(=O)n2cnc(N)n2)cc1
-11%	O=C(COC(=O)c1ccc(S(=O)(=O)Nc2ccccc2)cc1)NCCC1=CCCCC1
-6%	Cc1ccc(NC(=O)C2(S(=O)(=O)c3ccc(C)cc3)CC2)cc1
-21%	CCSc1cnn(-c2ccccc2)c(=O)c1SCC
-24%	N#Cc1c(NC(=O)COC(=O)C2CC3C=CC2C3)oc(-c2ccccc2)c1-c1ccccc1 (stereo not drawn)
-8%	CCn1c(SCc2nc3ccccc3[nH]2)nnc1-c1ccccc1OC
-5%	O=C1C(=O)N(CCN2CCOCC2)C(c2ccccn2)/C1=C(/O)c1ccc(F)cc1 (stereo not drawn)
-5%	Cn1ccnc1SCC(=O)Nc1cc(S(=O)(=O)N2CCOCC2)ccc1Cl
-3%	CC(=O)OCC1=C(C(=O)O)N2C(=O)[C@@H](NC(=O)CSc3ccncc3)[C@@H]2SC1
-5%	Cc1cc(N2CCCC2=O)cc(C)c1S(N)(=O)=O
-2%	O=C(O)CCC(=O)Nc1ccc(Br)c(Cl)c1
-13%	Cc1sc(NC(=O)C2CC=CCC2C(=O)O)c(C(=O)OC(C)C)c1C (stereo not drawn)
-1%	Cc1noc(C)c1S(=O)(=O)N1CCCC(C(=O)N2CCC(C)CC2)C1 (stereo not drawn)
-7%	CN(Cc1ccccc1)C(=O)CCn1c(=O)oc2ccccc21
-9%	COc1ccccc1N1CCN(C(=O)Cn2c(=O)[nH]c3ccsc3c2=O)CC1
-14%	O=C(Cc1ccc(Cl)cc1)NC(=S)Nc1ccccc1N1CCOCC1
-6%	CC(=O)OC(C(=O)NC1CCCCC1)c1ccc(Cl)cc1 (stereo not drawn)
28µM*	Clc1ccc(Cn2ncc3c(NCc4ccco4)ncnc32)c(Cl)c1
-29%	Cc1ccc(NC(=O)c2ccccc2Cl)c(Cl)c1
-6%	O=C(O)CN=C(NS(=O)(=O)c1ccc(Cl)cc1)c1ccccc1
-19%	Cc1cccc(C)c1OC1(c2ccccc2)OC(=O)c2ccccc21 (stereo not drawn)
0%	O=C(O)c1n[nH]c2c1CCCC2
-14%	C/C(=N/NC(=O)c1ccoc1C)c1ccc(NC(=O)C2CCCC2)cc1

# Rewritten bar-delimited: entries from further up
Molecule | HPGD inh
Cc1cccc(C)c1OC1(c2ccccc2)OC(=O)c2ccccc21 (stereo not drawn) | -19%
O=C(O)c1n[nH]c2c1CCCC2 | 0%

# (list continues)
HPGD inh	structure
-16%	CC(C)CCN1C(=O)c2ccc(C(=O)NCc3ccco3)cc2C1=O
-8%	COCCOC(=O)C1=C(C)NC(=O)NC1/C=C/c1ccccc1 (stereo not drawn)
0%	CC(CNC(=O)C(C)C)NC(=O)C(C)C (stereo not drawn)
-5%	COc1ccc(CNC(=O)Cc2ccc(OC)c(S(=O)(=O)N3CCOCC3)c2)cc1
?	CCOc1ccc2[nH]c(=S)[nH]c2c1
-17%	COc1ccc(/C(C)=N/OCC(=O)N=Nc2c(O)[nH]c3ccccc23)cc1
20µM*	Clc1ccc(Cn2ncc3c(NCc4ccccc4)ncnc32)c(Cl)c1
-28%	Cc1cc(C(=O)NN)c2cc(Br)ccc2n1
-8%	CCC(=O)Nc1cccc(NC(=S)NC(=O)c2ccc(Cl)cc2)c1
-15%	COc1ccc(NC(=O)c2cnc3sccn3c2=O)cc1
-25%	Cc1cccc(C(=O)NC(=S)Nc2ccc(N3CCOCC3)cc2)c1
-14%	CC(=O)N1N=C(N)SC1c1cccc([N+](=O)[O-])c1 (stereo not drawn)
?	CCOC(=O)c1sc(NC(=O)c2cccs2)nc1C
-2%	CC(c1cccs1)N(Cc1ccco1)C(=O)Nc1ccc(Cl)c(Cl)c1 (stereo not drawn)
-10%	COc1cccc(C(=O)NC2CCN(C(=O)N3CCCCC3)CC2)c1
-20%	Cc1c(C)n(C(=O)CN2CCN(c3ccccc3)CC2)c2ccccc12
22µM*	O=C(Cn1cnc2ccccc2c1=O)Nc1nnc(SCc2ccccc2)s1
-11%	COc1ccc(C)cc1NC(=O)C(OC(=O)CNC(=O)c1cccc(F)c1)c1ccccc1 (stereo not drawn)
-12%	CCc1nnc(NC(=O)C(=O)NCCOC(=O)c2ccccc2)s1
-15%	O=C(CSCc1c(Cl)cccc1Cl)Nc1ccc2c(c1)OCCO2
-2%&-4%	N[C@@H](CO)C(=O)O
-8%	O=C(Nc1cccnc1)c1scc2c1OCCO2
-5%	COc1cc(OC)cc(C(=O)NCC(=O)OCC(=O)c2cc(C)n(Cc3ccco3)c2C)c1
0%	Cc1cc(NC(=O)CSC2=NCCS2)no1
-25%	Cc1cc(C)c2c(=O)[nH]c(SCC(=O)NCc3ccccc3)nc2n1
-7%	O=C(COC(=O)COc1ccc2ccccc2c1)Nc1cc(C(F)(F)F)ccc1N1CCOCC1
-8%	COc1cccc2c1CCC1=CC(=O)CC[C@@]12C
?	COc1cccc2[nH]c3c(=O)n(CCN(C)C)cnc3c12
-3%	O=C(Cn1c(CN2CCCCC2)nc2ccccc2c1=O)NC1CCCCC1
-6%	COc1ccc(N2CCN(C(=O)Cc3ccc(-n4c(=O)[nH]c5ccccc5c4=O)cc3)CC2)cc1
-1%	c1ccc(CNC2=NCCCCC2)cc1
-5%	O=S(=O)(c1ccccc1)N(CC(F)(F)F)c1ccc(C(O)(C(F)(F)F)C(F)(F)F)cc1
-8%	Cc1cc(C)nc(Nc2n[nH]c(-c3ccccc3Br)n2)n1
-7%	CCOC(=O)N1CCC(NC(=O)CSCc2cnn(-c3ccccc3)c2-n2cccc2)CC1
-2%	CCNC(=O)CC1C(=O)N(c2ccc(C)cc2)C(=O)N1CCc1ccc(OC)c(OC)c1 (stereo not drawn)
-10%	COc1ccc(Nc2nc(N3CCCCC3)nc(N3CCCCC3)n2)c(OC)c1
-3%	O=S(=O)(NCCC(c1ccc(F)cc1)c1ccco1)c1ccccc1 (stereo not drawn)
-7%	O=C(OCCN1CCOCC1)c1cccs1
-6%	CCn1c(=NC(=O)CSC(C)=O)sc2cc(F)ccc21
-5%	CCC(C)Sc1nc2c(cnn2-c2ccc(C)c(C)c2)c(=O)[nH]1 (stereo not drawn)

# In the list so far, 7 have two or more sulfur atoms.
HPGD inh	structure
-21%	CCSc1cnn(-c2ccccc2)c(=O)c1SCC
-5%	Cn1ccnc1SCC(=O)Nc1cc(S(=O)(=O)N2CCOCC2)ccc1Cl
-3%	CC(=O)OCC1=C(C(=O)O)N2C(=O)[C@@H](NC(=O)CSc3ccncc3)[C@@H]2SC1
?	CCOC(=O)c1sc(NC(=O)c2cccs2)nc1C
22µM*	O=C(Cn1cnc2ccccc2c1=O)Nc1nnc(SCc2ccccc2)s1
0%	Cc1cc(NC(=O)CSC2=NCCS2)no1
-6%	CCn1c(=NC(=O)CSC(C)=O)sc2cc(F)ccc21

# (continued)
HPGD inh	structure
-7%	CC(=O)Nc1ccc(NC2(C)C(=O)c3ccccc3C2=O)cc1
5%	CCN(CC)S(=O)(=O)c1cccc2cccnc12
-15%	CCC(CC)NC(=O)Cc1ccccc1OC
-28%	CCOc1ccccc1N1CCN(CC(O)COc2ccc3c(C)cc(=O)oc3c2)CC1 (stereo not drawn)
-7%	O=C(CO/N=C1\CCCc2nonc21)Nc1ccc(Br)cc1
-5%	O=C(Nc1ncccc1Cl)c1cccc(F)c1
-12%	CCOC(=O)CSc1nnc(CNC(=O)c2ccc(OC)cc2OC)n1-c1ccc(OC)cc1
10µM*	Cc1nn(-c2ccccc2)c(Cl)c1C(=O)NCC(C)C
-10%	CN(c1cccc(NC(=O)CN2C(=O)c3ccccc3S2(=O)=O)c1)S(C)(=O)=O
-53%	CSc1ccccc1NC(=O)CO/N=C(\C)c1cc2ccccc2o1
-2%	Cc1ccc(NC(=O)CCn2cnc3ccccc3c2=O)cc1Cl
-4%	O=S(=O)(c1ccc(Cl)cc1)N1CCN=C1SCc1ccc(Cl)c(Cl)c1
-13%	Cc1ccc(NC(=O)CCCN2C(=O)/C(=C/C=C/c3ccccc3)SC2=S)cc1
-5%	Cc1nc2sc(C(c3ccccc3)N3CCN(c4ccccc4F)CC3)c(O)n2n1 (stereo not drawn)
-3%	CCC1CCCCN1Cc1ccc(CNS(=O)(=O)c2ccc3c(c2)oc(=O)n3C)o1 (stereo not drawn)
13µM*	CC(CC(=O)c1cccs1)CC(=O)c1cccs1
-9%	Nc1nnc(SCc2ccccc2F)n1-c1ccccc1
-11%	COC(=O)c1[nH]c2ccccc2c1NC(=O)CN1CCCc2ccccc21
-12%	Oc1[nH]c2ccccc2c1N=NC(=S)NCCc1ccccc1
?	O=C(Nc1ccccc1F)c1cc2nc(C(F)F)cc(C(F)F)n2n1
-15%	Cc1nn2c(NCCOCCO)c3c(nc2c1-c1ccccc1)CCCC3
0%	CCCn1c(N2CCN(C)CC2)nc2c1c(=O)[nH]c(=O)n2C
?	CCOc1ccc2c(c1)C(C)=CC(C)(C)N2C(=O)Nc1ccccc1
-14%	CCOc1ccc(-n2cc(C(=O)Nc3ccc(Cl)cn3)c3cc(OC)c(OC)cc3c2=O)cc1
-12%	CCCCN(CC)CCNC(=O)c1[nH]c(C)c(C(C)=O)c1C
-7%	Cc1nn(C)c(C(=O)N/N=C/c2ccc(C(F)(F)F)cc2)c1[N+](=O)[O-]
-3%	CCCCOC(=O)Nc1ccccc1C(N)=O
?	O=C(Oc1ccc2c(=O)c(Cl)coc2c1)c1ccncc1
16µM*	O=C(c1cc(-c2cccnc2)nc2ccc(Br)cc12)N1CCN(c2ncccn2)CC1
-3%	O=C(COC(=O)C1CC(O)CN1S(=O)(=O)c1ccc(Cl)cc1)c1cccc(Cl)c1 (stereo not drawn)
-11%	Cc1nn(Cc2ccc(Cl)cc2)c(C)c1NC(=O)c1cc(-c2ccco2)on1
2%	Cc1ccc2oc(=O)c3cnn(CC(=O)NC4CCN(Cc5ccccc5)CC4)c3c2c1
-13%	CCCC(=O)C1C(=O)CC(CC(C)SCC)CC1=O (stereo not drawn)
-7%	COc1ccccc1CNCC(=O)Nc1ccc(N2CCOCC2)cc1
-13%	O=C(O)C1(P(=O)(c2ccccc2)c2ccccc2)CCC1
-18%	Cc1ccc(-c2csc(N/N=C/c3ccco3)n2)c(C)c1
